From PubChem BioAssay
TRPV1 PAM: HTS Assay for Compounds that Act as Potentiators of the Vanilloid Receptor 1 | hit rate 0.02% among 320,000 | potentiation, % at 8.33 µM | Transient receptor potential cation channel subfamily V member 1 (Homo sapiens), Q8NER1 | AID 540277, 2011 | TRPV1-expressing cells, Fluo-8 calcium influx, capsaicin EC20 potentiation; host cell line not named in the record; control for the full effect not named in the record; active means potentiation above 80%; inconclusive means 30% to 80%; inactive means below 30%; further: 0% is about no effect
Target sequence (Q8NER1 whole entry, looked up): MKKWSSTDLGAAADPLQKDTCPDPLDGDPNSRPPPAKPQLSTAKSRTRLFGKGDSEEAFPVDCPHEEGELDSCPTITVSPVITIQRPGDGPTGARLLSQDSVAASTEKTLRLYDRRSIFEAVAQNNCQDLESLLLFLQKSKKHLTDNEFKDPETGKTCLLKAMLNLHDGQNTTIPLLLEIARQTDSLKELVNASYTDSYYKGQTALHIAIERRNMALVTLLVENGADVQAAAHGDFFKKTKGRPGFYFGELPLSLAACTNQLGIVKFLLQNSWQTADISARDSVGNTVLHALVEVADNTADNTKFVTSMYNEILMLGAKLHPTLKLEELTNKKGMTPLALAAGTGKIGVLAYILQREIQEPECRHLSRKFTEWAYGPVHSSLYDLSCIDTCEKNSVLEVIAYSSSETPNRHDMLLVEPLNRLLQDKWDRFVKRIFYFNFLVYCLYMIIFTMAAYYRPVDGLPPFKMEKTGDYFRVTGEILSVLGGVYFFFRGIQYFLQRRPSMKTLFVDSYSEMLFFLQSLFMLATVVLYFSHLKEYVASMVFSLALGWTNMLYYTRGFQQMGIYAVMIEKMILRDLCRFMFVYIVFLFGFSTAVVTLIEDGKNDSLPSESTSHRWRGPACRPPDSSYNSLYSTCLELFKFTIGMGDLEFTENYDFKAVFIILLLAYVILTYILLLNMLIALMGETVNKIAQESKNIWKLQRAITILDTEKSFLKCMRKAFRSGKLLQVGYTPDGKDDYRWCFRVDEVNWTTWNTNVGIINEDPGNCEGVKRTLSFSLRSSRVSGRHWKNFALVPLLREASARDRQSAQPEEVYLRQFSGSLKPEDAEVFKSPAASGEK
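Fluo-8 calcium influx in TRPV1-expressing cells, kinetic read (ex 480/em 520 nm). Compound added and read 3 min for agonist activity, followed by capsaicin at EC20 final and 2 min further read for enhancement.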
TRPML1 blocker: qHTS for Inhibitors of the Human Mucolipin Transient Receptor Potential 1 (TRPML1); Mucolipin-1 (Homo sapiens), Q9GZU1; activity change, negative = inhibition, % (no concentration beside the values); TRPML1-inducible cells, Ca2+ dye fluorescence, FDSS; hits give low values; inhibition of EC80 agonist-evoked calcium signal; AID 624415, 2012; hit rate 0.02% among 390,000; in the data active means activity change below about -50%; inconclusive means about -30% to -50%; inactive means above about -30%;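 further: stimulus is agonist 54-4 at its EC80 concentration; on the % scale 0 is the no-effect control and ±100 the full control effect; compound concentration not given in the record; the text of the record puts the active cut at -80%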
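TRPML1-DL cells, Tet-induced overnight (~16 h, 37 °C) at 1,500 cells/well, were loaded with Ca8 no-wash dye plus quencher for 45-90 min at room temperature. Compounds were pinned during FDSS kinetic reading; agonist 54-4 at EC80 (4 uM final) then added.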
gsp ag: qHTS for Agonist of gsp, the Etiologic Mutation Responsible for Fibrous Dysplasia/McCune-Albright Syndrome: qHTS | gsp mutant cells, cAMP HTRF, 30 min; control for the full effect not named in the record | Potency, µM (top dose mostly 76.9 µM), inactives show top-dose activation (cAMP increase), hits mostly activators | hit rate 0.13% among 340,000; active = well fitted activation curve with a large enough effect; inconclusive = small, poorly fitted or top-dose-only effect, or another doubt; inactive = no such curve, though single readings can be large or run the other way; cell line not stated here;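 further: phosphodiesterase inhibitor Ro 20-1724 added with compounds to block cAMP breakdown; potency means the concentration at half of the fitted maximal effect; nearly all actives have a fitted effect of over 60% in size; about a fifth of the inactives were tested at one dose only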
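Cells stably selected in G418 were plated at 2000/well, grown 16-24 hr, then given compounds in DMSO with the PDE inhibitor […] (300 uM solution added) for 30 min at 37C; cAMP was read by HTRF.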
Sfp inh: qHTS Assay for Inhibitors of Bacillus subtilis Sfp phosphopantetheinyl transferase (PPTase). Potency, µM, inactives show max response, negative = inhibition, actives largely listed as inhibitors. hit rate 3.5% among 310,000. AID 1490, 2009. Biochemical Sfp PPTase activity, qHTS; active means well fitted inhibition curve with a large enough effect; inconclusive means small, poorly fitted or top-dose-only effect, or another doubt; inactive means no such curve, though single readings can be large or run the other way;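 further: the enzyme is Sfp with the accession as filed and its product quenches rhodamine fluorescence; potency means the concentration at half of the fitted maximal effect; 0% = enzyme reaction without inhibitor and -100% = no enzyme wells; top concentration of the series not given in the record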
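Sfp 15 nM + cpd, 15 min RT; start w/ rhodamine-CoA 5 uM, BHQ-2-YbbR 12.5 uM (final); 50 mM Hepes pH 7.6, 10 mM MgCl2, 0.01% NP-40, 0.01% BSA; read 525/598 nm at 0 and 30 min.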
ClpP mod: qHTS Assay for Activators of ClpP | purified B. subtilis ClpP, FRET peptide cleavage, 20 min | Potency, µM (series often up to 57.5 µM), for the others: top-dose activity change, negative = active | hit rate 1.9% among 340,000 | AID 651965, 2013; active = well fitted falling curve with a large enough effect; inconclusive = small, poorly fitted or top-dose-only effect; inactive = no such curve, though single readings can be large or run the other way; further: potency means the concentration at half of the fitted maximal effect; the source files actives as falling curves though it sought activators and does not explain the sign; nearly all actives have a fitted effect of over 65% in size; many hits overshoot -100%
Target sequence (P80244 whole entry, looked up): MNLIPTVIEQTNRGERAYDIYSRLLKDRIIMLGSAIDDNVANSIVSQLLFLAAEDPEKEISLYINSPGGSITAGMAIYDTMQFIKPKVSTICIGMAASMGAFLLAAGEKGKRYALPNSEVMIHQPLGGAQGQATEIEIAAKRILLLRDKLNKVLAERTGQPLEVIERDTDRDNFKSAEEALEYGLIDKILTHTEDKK
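Purified B. subtilis ClpP, 10 microg/mL final in Tris/HCl pH8 with KCl, BSA, glycerol and Tween-20, cleaved an Abz/nitrotyrosine-quenched decapeptide. Fluorescence (ex 320, em 430) was read at 0 and 20 min at room temperature. Delta was normalized to 5.8 microM ADEP and DMSO/no-enzyme controls.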
Menin-MLL FL inh: qHTS Assay for Inhibitors Targeting the Menin-MLL Interaction in MLL Related Leukemias: Competition With Fluorescein Labeled MLL-derived Peptide; Fluorescence polarization, fluorescein-MLL peptide displacement from menin; FP activity change, % at 61.4 µM; 290,000 tested, under 10 active; inconclusive = falling polarisation curve, or a change in total fluorescence; inactive = total fluorescence flat and polarisation flat or rising; no compound was filed as active; the % refers to the polarisation; negative = inhibition;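 further: % of control where 0% means no effect; inhibitors lower the polarisation; unlabelled MLL peptide was the positive control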
gsp antagonist: qHTS for Antagonists of gsp, the Etiologic Mutation Responsible for Fibrous Dysplasia/McCune-Albright Syndrome: qHTS; gsp-mutant cells, cAMP HTRF, 30 min; control for the full effect not named in the record; Potency, µM (doses to about 76.9 µM), without a hit: at the highest dose activity change, negative = inhibition, hits mostly inhibitors; hit rate 0.4% among 340,000; active = falling curve of any shape with a large fitted effect; inconclusive = falling curve, mostly with a smaller effect; inactive = flat or rising curve; cell line not stated here;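 further: intracellular cAMP measured with PDE inhibitor Ro 20-1724 present during compound exposure; potency means the concentration at half of the fitted maximal effect; on the % scale 0 is the no-effect control and ±100 the full control effect; nearly all actives have a fitted effect of over 65% in size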
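Cells in G418 medium, seeded 16-24 h, 37C; buffer exchange to DPBS + 1 mM CaCl2, 0.5 mM MgCl2, 0.05% BSA; cpds in DMSO + […] (300 uM stock), 30 min 37C; HTRF cAMP detection.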
* marks the source's active call; other numbers are inactive results; ? = inconclusive; / = no result given; & = joins results of further samples; [ ] = dose if it differs, or a comment.

SMILES	TRPV1 PAM	TRPML1 blocker	gsp ag	Sfp inh	ClpP mod	Menin-MLL FL inh	gsp antagonist
Cc1ccc2oc(=O)cc(CN3CCCCC3)c2c1	-8.8	25.4	-4.7%[15.4 µM]	21.5%	-0.2%	1.3	-0.5%
CCOc1cccc(N2C(=O)CC(N3CCN(c4nc5ccccc5s4)CC3)C2=O)c1 (stereo not given)	6.6	-10.7	-17.5%	-2.0%	-1.1%	-1.2	-13.6%
COc1ccc(-c2nsc3c(N4CCCCC4)ncnc23)cc1	12.4	11.5	20.1%	-11.2%	?	4.1	-2.3%
Cc1nn(-c2ccccc2)c2c1C1(C(=O)N(C(C)C)c3ccccc31)C(C#N)=C(N)O2 (stereo not given)	?	-5.4	12.0%	4.8%	-0.5%	0.4	-7.6%
c1ccc(-c2nc(-c3ccccn3)nc(-c3ccccn3)n2)nc1	2.4	24.4	8.0%[15.4 µM]	?	-9.1%	-0.3	0.0%
CCn1c(CNc2ccc(C(=O)O)cc2)nc2ccccc21	5.4	6.0	-1.4%	-24.2%	-4.4%	1.1	-1.4%
CC1(C(=O)Nc2nc3ccc(S(C)(=O)=O)cc3s2)CC1(Cl)Cl (stereo not given)	/	-7.6	2.6%	/	/	/	-14.2%
O=S(=O)(c1ccc(NC(=S)NN=Cc2ccccc2O)cc1)N1CCCCC1	/	17.9	-1.4%	/	-8.8%	/	-23.8%
Cc1ccccc1C(=O)Oc1ccccc1N1C(=O)C2CC=CCC2C1=O (stereo not given)	0.4	-0.3	-28.2%	3.6%	0.4%	4.8	8.6%
O=C(CN1C(=O)C2C3C=CC(C4CC34)C2C1=O)OCC(=O)c1ccccc1 (stereo not given)	-3.3	-20.1	-24.7%	2.0%	8.1%	7.9	-1.0%
CC(C)c1ncc(C(O)c2ccccc2)n1C (stereo not given)	-5.7	-7.2	-12.1%[15.4 µM]	8.5%	-12.3%	-0.2	12.7%
COc1cc(NC(=O)CCS(=O)(=O)c2nc(-c3cccs3)cc(C(F)(F)F)n2)cc(OC)c1OC	-0.1	11.5	/	/	44.3%	/	/
O=C(Cn1cccc1)N1CCN(c2ccc(F)cc2)CC1	1.0	12.1	?	11.5%	-2.3%	0.5	13.0%
Cc1c(C(c2ccc(F)cc2)c2c(C)n(C)n(-c3ccccc3)c2=O)c(=O)n(-c2ccccc2)n1C	10.6	/	-12.5%	-13.3%	-0.3%	-17.4	-1.8%
CCN(CC)C(=O)c1sc(NC(=O)Cc2ccc(OC)cc2)c(C#N)c1C	-14.6	-0.7	5.9%	9.5%	1.4%	2.2	-5.1%
CC(C)OC(=O)c1c2c(n3ccccc13)C(=O)c1ccccc1C2=O	8.3	-9.3	-6.2%[15.4 µM]	?	/	?	-6.7%
O=C(CN1C(=O)NC2(CCCCC2)C1=O)Nc1nc2c(F)cc(F)cc2s1	1.1	-6.8	6.8%[15.4 µM]	/	-3.1%	/	-5.9%
O=[N+]([O-])c1ccc(NN=Cc2ccco2)nc1	/	0.4	17.1%	/	/	/	-2.0%
COCCN(CC(=O)Nc1cccc(C)c1C)C(=O)c1oc2c(Cl)cccc2c1C	-0.1	-0.7	10.8%	/	1.4%	/	-21.9%
CC(=O)Nc1ccccc1C(=O)N1CCN(Cc2ccc3c(c2)OCO3)CC1	3.1	-13.7	-14.1%	8.8%	3.4%	-1.0	3.0%
COc1ccc2ccccc2c1CN1CCN(Cc2ccccc2)CC1	8.6	2.2	-54.5%[inhibitor]	13.4%	-2.9%	3.7	-0.5%
COc1ccc(CCNC(=O)CNS(=O)(=O)c2ccc(N(C)C)c([N+](=O)[O-])c2)cc1OC	8.0	-6.9	-4.2%	19.8%	-0.5%	-1.8	6.2%
COC(=O)/C=c1/s/c(=C(\C#N)C(=O)NCc2ccco2)n(-c2ccccc2)c1=O	4.9	-2.3	-13.0%	-4.0%	-2.6%	12.7	0.6%
CCc1noc(C)c1C(=O)Nc1cc(S(=O)(=O)N(CC)CC)ccc1N1CCOCC1	-19.3	6.8	?	/	-7.8%	/	-7.9%
Cc1ccc(Nc2ccc(C(=O)O)cc2N)cc1	8.9	2.9	-2.8%	7.6%	-24.6%	8.5	?
More compounds follow:
SMILES	TRPV1 PAM	TRPML1 blocker	gsp ag	Sfp inh	ClpP mod	Menin-MLL FL inh	gsp antagonist
NC(=O)c1c(NC(=O)CSc2nnc(-c3ccco3)n2-c2ccccc2)sc2c1CCC2	11.2	-12.9	-9.2%	?	-2.4%	14.6	-12.0%
CN1CCN(S(=O)(=O)c2ccc(NC(=O)c3csc4ccccc34)cc2)CC1	-1.0	2.0	13.5%	-3.1%	-0.5%	-0.5	-0.4%
O=C(CSc1nnc(CN2CCOCC2)n1-c1ccc(Cl)cc1)N1CCc2ccccc21	/	8.1	-19.9%	/	-5.8%	/	-0.6%[15.4 µM]
CCc1ccc2oc(=O)cc(CN3CCCCC3)c2c1	-15.8	-17.7	?	13.1%	-3.1%	-9.3	-10.8%
COC(=O)c1cc(S(=O)(=O)Nc2cc(OC)cc(OC)c2)c[nH]1	-1.3	-20.4	20.5%	9.9%	0.2%	4.0	-15.0%
C=CCn1c(SCC(C)=O)nnc1-c1cc(-c2ccccc2)sc1N	-1.0	-4.0	4.7%	-4.3%	-27.4%	3.1	-26.1%
COc1ccc(C(C)=O)cc1COc1ccc([N+](=O)[O-])c(C)c1	-4.9	12.8	25.5%[15.4 µM]	-5.8%	/	0.3	-18.6%
CCN1CCN(c2cc(C)c3cc(NC(=O)c4ccncc4)ccc3n2)CC1	/	-3.8	7.9%	-4.3%	-4.7%	4.8	-3.0%
CCc1ccc(S(=O)(=O)c2ccc(-n3nc(C)cc3N)cc2)cc1	-14.1	-18.0	2.0%	1.6%	/	-1.4	-2.7%
COc1ccc(NS(=O)(=O)c2ccc(N3CCCC3)c(NC(=S)Nc3ccc(SC(F)F)cc3)c2)cc1	3.2	4.1	-19.4%	17.8µM*	3.9%	3.6	5.0%
COc1cc2c(cc1OC)CN(C(=O)c1ccco1)CC2	6.5	-9.0	18.0%	23.5%	-5.2%	-1.2	11.4%
O=C(O)CCCN1C(=O)/C(=C/c2cn(-c3ccccc3)nc2-c2cccs2)SC1=S	-6.2	25.3	-15.2%[15.4 µM]	-28.5%	/	?	?
CCCCC1(Cc2ccc(OC)c([N+](=O)[O-])c2)C(=O)N(c2ccccc2)N(c2ccccc2)C1=O	-0.2	-14.1	-4.3%	22.0%	-0.4%	0.3	-15.4%
O=C(Cc1cccs1)N1CCN(S(=O)(=O)c2ccc(Br)cc2)CC1	-2.6	-16.7	-44.6%	-6.9%	-1.2%	0.1	-20.1%
CCCCCCNS(=O)(=O)c1ccccc1Br	-4.0	48.5&-17.8	/	-4.3%&-0.2%	0.9%	-4.4&2.3	-3.5%
COc1nccnc1NS(=O)(=O)c1ccc(NC(=O)c2cccc(C)c2)cc1	-5.2	12.8	19.1%[15.4 µM]	-6.1%	/	-2.6	2.0%
O=C(CC(=O)c1ccccc1)Nc1ccc([N+](=O)[O-])cc1	/	2.7	0.0%	/	/	/	-1.8%
COc1ccccc1NC(=O)Cn1nnc(C(=O)NCc2cccs2)c1N	-22.3	0.6&24.3	0.8%	-2.7%	1.3%&-9.3%	-1.5	-17.3%
Cc1noc(C)c1C(=O)N1CCc2ccccc21	-8.7	-6.0	-5.3%	9.1%	-4.8%	-0.4	-6.9%
Cc1ccc(C)c(OCC(=O)Nc2nc3ccc([N+](=O)[O-])cc3s2)c1	5.8	-2.5	-19.4%	13.4%	-2.8%	1.9	-12.5%
Fc1ccccc1/C=N/Nc1cc(N2CCCCC2)ncn1	/	3.8	2.9%	/	-4.4%	/	3.1%
CCCCC1SC(N)=NC1=O (stereo not given)	/	-16.0	-8.6%	/	/	/	9.6%
CCC1(c2ccccc2)NC(=O)N(CC(=O)Nc2ccc(N3CCCC3)cc2C)C1=O (stereo not given)	0.2	9.3	-46.0%[inhibitor]	/	-2.1%	/	-12.8%
O=C(N/N=C/c1ccc(O)c(O)c1)NC12CC3CC(CC(C3)C1)C2	5.4	7.0	1.0%[15.4 µM]	-18.0%	/	-0.7	15.5%
CC(=O)N/C(=C\c1ccccc1)C(=O)OCC(=O)N(C)C1CCCCC1	-0.5	-9.8	23.3%	5.3%	-4.2%	-1.1	-1.0%
(more compounds)
SMILES	TRPV1 PAM	TRPML1 blocker	gsp ag	Sfp inh	ClpP mod	Menin-MLL FL inh	gsp antagonist
COc1ccc(NC(=O)c2cccc3ccccc23)cc1OC	/	-12.2	-295.9%[inhibitor]	/	-2.7%	/	/
O=C(NC(=O)N1CCN(c2ccccc2F)CC1)c1ccccc1	-4.7	-8.4	-23.5%	-2.1%	-2.1%	-1.8	3.9%
CC1(C(=O)NCCCN2CCOCC2)Oc2cccnc2NC1=O (stereo not given)	10.6	-29.6	12.9%[15.4 µM]	-3.8%	-2.4%	3.4	5.3%
Cc1ccc2nc(N/C(=N/S(=O)(=O)c3ccc(F)cc3)c3ccccc3)sc2c1	1.8	5.5	2.8%	2.1%	43.2%	-2.2	25.1µM*
CC1CCc2[nH]c3ccc(C(=O)N(C)CC(=O)Nc4cccc(F)c4)cc3c2C1 (stereo not given)	18.5	-15.2	1.8%[15.4 µM]	/	/	/	-14.2%
Cc1cccc(C(=O)NNC2=CC(=O)CC(C)(C)C2)c1O	-4.1	-0.6	11.6%[15.4 µM]	-3.5%	/	?	-6.6%
COc1cc(OC)c(OC)cc1CN1CCN(Cc2ccco2)CC1	9.6	0.4	-29.0%	-9.4%	/	-4.1	-5.0%
COc1cccc(NC(=O)[C@H](CC(C)C)NC(=O)[C@@H]2Cc3ccccc3CN2)c1	-28.6	4.3	3.0%	2.6%	-3.0%	/	13.2%
COc1ccccc1O	-10.8	-3.3	/	1.5%&22.3%	2.8%	-0.5&1.5	0.9%
COc1cc(OC)c(C2SCCN2S(=O)(=O)c2ccc(F)cc2)cc1OC (stereo not given)	3.5	-3.2	-14.9%	-11.3%	0.2%	-1.4	8.4%

Random draw from the library, and some 4.9% of all compounds hit somewhere here.
